Assay outcomes (PubChem)
gsp ag: gsp mutant agonism | Potency, µM (highest dose often 76.9 µM), for the others: at the highest dose activation (cAMP increase), actives largely listed as activators | AID 624287 | hit rate 0.13% among 340,000 | gsp mutant cells, cAMP HTRF, 30 min; control for the full effect not named in the record; active = well fitted activation curve with a large enough effect; inconclusive = small, poorly fitted or top-dose-only effect, or another doubt; inactive = no such curve, though single readings can be large or run the other way; cell line not stated here;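 note: phosphodiesterase inhibitor Ro 20-1724 added with compounds to block cAMP breakdown; potency is the fitted concentration of half-maximal effect; nearly all actives have a fitted effect of over 60% in size; about a fifth of the inactives were tested at one dose only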
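Cells in DMEM/10% FBS with G418 were pretreated with compounds in DMSO plus […] (300 uM stock) for 30 min at 37C. cAMP was measured by HTRF (cAMP-d2 plus anti-cAMP antibody-K) after 30 min at room temperature.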
D2 potentiator: positive allosteric modulators of human D2 dopamine receptor; P14416; DiscoveRx D2 beta-arrestin cells, luminescence, 90 min; 100% = 57 uM dopamine signal; potentiation, % (concentration not given with the values); hit rate 0.23% among 360,000; AID 624464; active = potentiation of 50% or more; inconclusive = 30% to 50%; inactive = 30% or less;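 note: compound concentration not given in the record; tested on top of an EC20 dose of dopamine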
Target sequence (P14416 whole entry, looked up): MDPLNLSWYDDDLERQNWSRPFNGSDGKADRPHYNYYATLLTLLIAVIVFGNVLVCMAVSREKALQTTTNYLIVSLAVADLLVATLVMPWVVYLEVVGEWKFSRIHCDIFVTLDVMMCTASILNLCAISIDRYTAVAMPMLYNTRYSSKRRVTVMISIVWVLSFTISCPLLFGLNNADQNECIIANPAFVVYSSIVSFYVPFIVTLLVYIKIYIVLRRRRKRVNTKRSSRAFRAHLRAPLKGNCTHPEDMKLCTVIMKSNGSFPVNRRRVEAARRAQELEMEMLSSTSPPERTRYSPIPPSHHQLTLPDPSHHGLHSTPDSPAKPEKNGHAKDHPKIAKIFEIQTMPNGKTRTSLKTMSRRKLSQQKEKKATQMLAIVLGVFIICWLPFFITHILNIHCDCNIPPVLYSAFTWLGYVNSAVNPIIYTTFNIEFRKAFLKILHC
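PathHunter D2 cells, attached overnight at 37 deg C, received compound in DMSO plus dopamine at EC20 (50 nM final) for 90 min at 37 deg C. Beta-arrestin recruitment was read as luminescence after 1 h with detection reagent at ambient temperature.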
Sfp PPTase inh: inhibitors of Bacillus subtilis Sfp phosphopantetheinyl transferase | Q9F4F7 | Biochemical Sfp PPTase activity, qHTS | Potency, µM, for inactives: max response, negative = inhibition, hits mostly inhibitors | hit rate 3.5% among 310,000 | AID 1490; active = well fitted inhibition curve with a large enough effect; inconclusive = small, poorly fitted or top-dose-only effect, or another doubt; inactive = no such curve, though single readings can be large or run the other way;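 note: the enzyme is Sfp with the accession as filed and its product quenches rhodamine fluorescence; potency is the fitted concentration of half-maximal effect; 0% = enzyme reaction without inhibitor and -100% = no enzyme wells; top concentration of the series not given in the record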
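After 15 min at room temperature with compound, 15 nM Sfp received 5 uM rhodamine-CoA plus 12.5 uM BHQ-2-ybbR (50 mM Hepes pH 7.6, 10 mM MgCl2). Rate came from the fluorescence difference over 30 min, ex 525/em 598 nm.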
gsp antag: antagonists of gsp mutant (McCune-Albright syndrome) | gsp-mutant cells, cAMP HTRF, 30 min; control for the full effect not named in the record | Potency, µM (top dose mostly 76.9 µM), for the others: top-dose activity change, negative = inhibition, usual class: inhibitors | hit rate 0.4% among 340,000 | AID 624288; active = falling curve of any shape with a large fitted effect; inconclusive = falling curve, mostly with a smaller effect; inactive = flat or rising curve; cell line not stated here;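 note: intracellular cAMP measured with PDE inhibitor Ro 20-1724 present during compound exposure; potency is the fitted concentration of half-maximal effect; % is set by controls: 0 for no effect and ±100 for the full control effect; nearly all actives have a fitted effect of over 65% in size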
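HTRF cAMP read-out (cAMP-d2 plus anti-cAMP antibody-K in lysis buffer, 30 min RT). Before lysis, cells are exposed to compounds with […] for 30 min at 37C in DPBS containing Ca/Mg, BSA and Tween 20.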
ClpP mod: qHTS Assay for Activators of ClpP | ATP-dependent Clp protease proteolytic subunit (Bacillus subtilis (strain 168)), P80244 | purified B. subtilis ClpP, FRET peptide cleavage, 20 min | Potency, µM (doses to about 57.5 µM), for inactives: at the top dose activity change, negative = active | hit rate 1.9% among 340,000 | AID 651965, 2013; active = well fitted falling curve with a large enough effect; inconclusive = small, poorly fitted or top-dose-only effect; inactive = no such curve, though single readings can be large or run the other way; note: potency is the fitted concentration of half-maximal effect; the source files actives as falling curves though it sought activators and does not explain the sign; nearly all actives have a fitted effect of over 65% in size; many hits overshoot -100%
Target sequence (P80244 whole entry, looked up): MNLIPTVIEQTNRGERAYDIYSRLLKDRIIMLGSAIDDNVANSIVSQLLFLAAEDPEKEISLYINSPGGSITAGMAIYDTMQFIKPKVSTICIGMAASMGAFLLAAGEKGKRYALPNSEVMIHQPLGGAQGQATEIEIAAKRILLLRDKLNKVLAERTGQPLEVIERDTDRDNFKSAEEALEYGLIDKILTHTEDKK
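ClpP 10 microg/mL final, pH 8 Tris/KCl buffer with BSA, glycerol, Tween-20; compound pinned in; FRET-FV substrate; RT 20 min; Ex320/Em430; ΔFRET vs ADEP 5.8 microM, DMSO, no enzyme.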
TRPV1 PAM: enhances activation of the human vanilloid receptor TRPV1 | Q8NER1 | TRPV1-expressing cells, Fluo-8 calcium influx, capsaicin EC20 potentiation; host cell line not named in the record; control for the full effect not named in the record | hit rate 0.02% among 320,000 | potentiation, % at 8.33 µM; active means potentiation above 80%; inconclusive means 30% to 80%; inactive means below 30%; note: 0% is about no effect
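Fluo-8 calcium influx in TRPV1-expressing cells, kinetic read (ex 480/em 520 nm). Compound added and read 3 min for agonist activity, followed by capsaicin at EC20 final and 2 min further read for enhancement.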
Menin-MLL FL inh: displaces fluorescein MLL peptide from human menin | Fluorescence polarization, fluorescein-MLL peptide displacement from menin | FP activity change, % at 61.4 µM | 290,000 tested, under 10 active; inconclusive = falling polarisation curve, or a change in total fluorescence; inactive = total fluorescence flat and polarisation flat or rising; no compound was filed as active; the % refers to the polarisation; negative = inhibition;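 note: % of control where 0% means no effect; inhibitors lower the polarisation; unlabelled MLL peptide was the positive control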
The depositor's hits bear a star; ? = inconclusive; . = not tested or not shown; [ ] = dose if it differs, or a comment.

Screens in order: gsp ag, D2 potentiator, Sfp PPTase inh, gsp antag, ClpP mod, TRPV1 PAM, Menin-MLL FL inh
- O=C(COc1ccccc1)Nc1c(C(=O)N2CCC(N3CCCCC3)CC2)oc2ccccc12
  -1%, -12, 10%, 6%, 0.4%, 0, .
- COC(=O)c1ccc(CO/N=C/c2cccc([N+](=O)[O-])c2)cc1
  19%[15.4 µM], -5, -3%, -5%, -26%, -5, -15
- COc1cccc(OC)c1OCCOc1ccccc1OC(C)C
  7%, -5, 11%, -2%, 1.2%, -5, 0.8
- C#Cc1cccc(-n2nnc(C(C)=O)c2C)c1
  -10%[15.4 µM], -4, 11%, 4%, 0.1%, -13, 2.6
- CC(C)c1ccc(OCC(=O)NCc2ccccc2)cc1
  2%[15.4 µM], -12, 15%, 3%, -4.7%, -5, 0.1
- N#CCN(C(=O)CSc1nnc(C2CC2)n1C1CC1)c1ccccc1
  1%, -9, ., ., -1.3%, ., .
- CCn1c(SCC(=O)Nc2ccc(N(C)C)cc2)nnc1-c1ccco1
  -8%[15.4 µM], -14, 10%, -2%, -2.2%, -3, -2.3
- CCCCCn1c(CN2CCCCC2CC)nc2c1c(=O)n(C)c(=O)n2C (stereo unspecified)
  5%, -4, 14%, 5%, -1.8%, -23, -2.5
- CCOCCCNC(=O)CNC(=S)N(Cc1ccc(C)cc1)Cc1ccco1
  -14%[15.4 µM], 6, 40µM*, 4%, ., -6, 3.8
- CCS(=O)(=O)N1CCN(c2ccc(S(=O)(=O)N3CCOCC3)cc2)CC1
  3%, -1, 6%, 3%, ., -5, 0.2

Record cards, from the list above.
Profile of `C#Cc1cccc(-n2nnc(C(C)=O)c2C)c1` = gsp ag: -10%[15.4 µM]; D2 potentiator: -4; Sfp PPTase inh: 11%; gsp antag: 4%; ClpP mod: 0.1%; TRPV1 PAM: -13; Menin-MLL FL inh: 2.6
Profile of `CCS(=O)(=O)N1CCN(c2ccc(S(=O)(=O)N3CCOCC3)cc2)CC1` = gsp ag: 3%; D2 potentiator: -1; Sfp PPTase inh: 6%; gsp antag: 3%; ClpP mod: .; TRPV1 PAM: -5; Menin-MLL FL inh: 0.2

Continuation:
Screens in order: gsp ag, D2 potentiator, Sfp PPTase inh, gsp antag, ClpP mod, TRPV1 PAM, Menin-MLL FL inh
- CCCCn1nc(C(=O)N2CCN(S(=O)(=O)c3ccccc3)CC2)c2ccccc2c1=O
  2%[15.4 µM], 8, ., -4%, -4.3%, -4, .
- Cc1cccc(C(=O)Nc2cccc3cccnc23)c1
  3%, -1, -15%, -11%, -0.5%, -6, 0.8
- OC(COc1cccc(OCC(O)CN2CCCC2)c1)CN1CCCC1 (stereo unspecified)
  -18%, -15, 17%, 4%, 0.3%, -7, 2.3
- CN(C)S(=O)(=O)c1cccc(NC(=S)NN=C(Cc2ccccc2)Cc2ccccc2)c1
  13%, -10, -14%, 6%, 0.9%, -3, 2.7
- CCC(C)NC(=O)C(Cc1ccccc1)NS(=O)(=O)c1ccc2c(c1)CCC(=O)N2 (stereo unspecified)
  11%, -6, 19%, 3%, -1.2%, 10, .
- CCOc1cc(C(=O)O)cc(Cl)c1OCC#N
  -61%[inhibitor], -9, 28%, 4%, 1.9%, -6, 3.0
- Cn1c(NC(=O)c2ccco2)cc(=O)n(C)c1=O
  -16%, -7, 13%, -1%, -1.8%, -3, 2.3
- CC(=O)/C(=N\Nc1ccccc1)Sc1cccc2cccnc12
  2%[15.4 µM], -8, 16%, -24%, -7.4%, 9, 0.2
- Cc1nc(SCCOc2ccccc2)[nH]c(=O)c1Cc1ccccc1
  10%[15.4 µM], -7, -3%, ., ., 1, -5.6
- CCN(CC)C(=O)c1[nH]cnc1C(=O)NC1CCN(C(=O)OC(C)(C)C)CC1
  ., -11, ., 6%, -1.7%, 8, .
- OC1(c2ccc(OC(F)F)cc2)CSC(=Nc2cccnc2)N1Cc1ccco1 (stereo unspecified)
  -17%, -1, 1%, 32µM*, ., -5, -2.6
- Nc1ccccc1-n1c(=O)n(Cc2ccccc2F)c(=O)c2[nH]cnc21
  11%, -4, -9%, 10%, -0.3%, 1, -1.8
- O=C(c1ccccc1F)N1CCCC(C(=O)N2CCN(c3ccccc3)CC2)C1 (stereo unspecified)
  2%[15.4 µM], -7, -7%, -2%, ., 2, 3.1
- Nc1nc(Cl)cc(NCCc2ccccc2)n1
  ., ., 15%, ., ., 6, -2.7
- Cc1noc(NC(=O)c2cccc(C(F)(F)F)c2)c1Cl
  -10%[15.4 µM], 13, 17%, ., ., 4, 0.2
- COC(C(=O)NNC(=O)Cc1ccc(Cl)cc1)c1ccccc1 (stereo unspecified)
  -1%[15.4 µM], -7, 16%, -20%, ., -14, 0.7
- Cc1ccccc1C(=O)OC(C)CN1CCOCC1 (stereo unspecified)
  27%, -16, -11%, 22%, -10%, -18, 2.7
- COc1ccc(-c2cc(C(=O)N3CC(C)CC(C)C3)c3ccccc3n2)cc1 (stereo unspecified)
  -1%[15.4 µM], -8, ., -12%, 28µM*, 2, .
- C=CCNC(=O)COC(=O)c1cc(S(=O)(=O)N2CCOCC2)ccc1N1CCCCC1
  22%, -11, -2%, 0%, -3.3%, -4, 1.4
- COc1nc(NC(C)(C)C)nc(Oc2ccc(=O)n(-c3ccccc3)n2)n1
  -60%[inhibitor], -3, 10%, -2%, 1.3%, -11, 0.3
- CCOCCCNCC(O)c1ccccc1 (stereo unspecified)
  -26%, -13, ?, 8%, -1.0%, ?, 0.7
- COc1ccc(-c2csc(/C(C#N)=C(\O)CSc3nccn3C)n2)cc1OC
  2%, 13, ?, -20%, 0.3%, 11, ?
- CCOc1ccccc1C(=O)Nc1cnn(Cc2ccc(F)cc2)c1
  0%, -11, 1%, -10%, 1.3%, -14, 4.7
- Cc1ccc(S(=O)(=O)Nc2ccccc2/C=N/c2nc3ccccc3n2C)cc1
  -18%[15.4 µM], -13, -13%, -15%, 0.5%, -9, 3.4
- CCC(=O)NNC(=O)c1cc(COc2cc(Cl)cc(Cl)c2)on1
  0%, -5, 19%, 2%, 0.2%, 7, -0.5
- COc1cc(C(C(=O)NC(C)(C)C)N(Cc2ccccc2)C(=O)c2cnccn2)cc(OC)c1OC (stereo unspecified)
  -18%, 7, 11%, -1%, 0.5%, -7, 1.3
- CCC/C=C/c1ccc(CN2C(CC(C)C)C(=O)N(Cc3cn(CCOCOC)nn3)CCS2(=O)=O)cc1 (stereo unspecified)
  -3%, -1, ., ., 1.8%, ., .
- CC(C)CCn1cnc2c(oc3nc4c(cc32)CCCC4)c1=O
  5%, -4, 4%, -7%, -19%, 9, 2.9
- COc1cc(CNCc2cc(OC)ccc2OC)cc(OC)c1
  ?, -6, -5%, 3%, 0.3%, 7, 5.7
- O=C(NCCN1CCOCC1)c1cc2ccccc2oc1=O
  -13%[15.4 µM], -8, 6%, 11%, 1.4%, -13, -8.7

5 of the entries above in order of the Sfp PPTase inh value, falling.
Compound | gsp ag | D2 potentiator | Sfp PPTase inh | gsp antag | Menin-MLL FL inh
COc1cc(C(C(=O)NC(C)(C)C)N(Cc2ccccc2)C(=O)c2cnccn2)cc(OC)c1OC (stereo unspecified) | -18% | 7 | 11% | -1% | 1.3
O=C(NCCN1CCOCC1)c1cc2ccccc2oc1=O | -13%[15.4 µM] | -8 | 6% | 11% | -8.7
CCOc1ccccc1C(=O)Nc1cnn(Cc2ccc(F)cc2)c1 | 0% | -11 | 1% | -10% | 4.7
COc1cc(CNCc2cc(OC)ccc2OC)cc(OC)c1 | ? | -6 | -5% | 3% | 5.7
Cc1ccc(S(=O)(=O)Nc2ccccc2/C=N/c2nc3ccccc3n2C)cc1 | -18%[15.4 µM] | -13 | -13% | -15% | 3.4

Further structures
Screens in order: gsp ag, D2 potentiator, Sfp PPTase inh, gsp antag, ClpP mod, TRPV1 PAM, Menin-MLL FL inh
- CN(Cc1ccc(Cl)s1)C(=O)CSc1nnc(C2CC2)n1C1CC1
  27%, -4, ., 17%, 0.7%, 8, .
- Oc1ccccc1/C=C/c1noc(-c2ccccc2O)n1
  -4%[15.4 µM], 5, 13%, 7%, ., -2, -1.3
- Cn1c2c(c3cc([N+](=O)[O-])ccc31)CCCC2
  -30%[15.4 µM], -7, 14%, 8%, 1.0%, -6, 3.3
- Cc1cc(C(=O)OCC(=O)Nc2cccc(S(N)(=O)=O)c2)c2ccccc2n1
  21%[15.4 µM], -5, 14%, -2%, ., 23, -2.2
- CCC(=O)NCCC(c1ccco1)c1ccccc1OC (stereo unspecified)
  -11%, -28, 11µM*, -16%, -0.9%, -10, ?
- Cc1ccc(CC(C(=O)O)C(C)C(=O)Nc2ccc(F)cc2)cc1 (stereo unspecified)
  -29%, -10, 14%, 6%, -1.4%, 3, 1.7
- O=c1c(-c2nc3ccccc3s2)cccn1Cc1ccc(Cl)c(Cl)c1
  -4%, -3, -8%, -12%, ?, 2, 8.5
- COc1ccc2c(c1OC)C(=O)N(c1ccccc1)C2=O
  -37%[inhibitor], -2, 6%, 3%, ., -3, 2.6
- CN1CCCN(C(=O)c2ccc(Cl)s2)CC1
  ?, -9, -5%, 8%, -0.2%, -1, .
- O=C1NCCCc2c1oc1ccc(O)cc21
  -18%, -15, -10%, 14%, -4.4%, -2, -1.0
- CC(=O)N1c2ccc(S(=O)(=O)NCCC(=O)Nc3ccc(F)cc3C)cc2CC1C (stereo unspecified)
  25%, -10, 11%, 8%, 1.4%, -3, 0.4
- CCc1ccccc1NC(=S)N(CCN1CCCCCC1)Cc1ccco1
  1%[15.4 µM], -10, 9%, 10%, ., -14, -2.8
- Cc1noc(C(F)(F)F)c1C(=O)NNC(=O)c1ccccc1
  9%[15.4 µM], -1, 5%, -3%, 0.3%, 2, 4.3
- O=S(=O)(c1ccc(Cl)cc1)n1nnc2ccccc21
  -27%, 1, 19%, 8%, 6.0%, 1, 4.4
- CCOC(=O)CC(NC(=O)CCc1c(C)nc2ncnn2c1C)c1ccc(C)cc1 (stereo unspecified)
  ?, 0, 5%, 10%, 0.7%, 1, 1.3
- O=C(CN1CCCC1)NC12CC3CC(CC(C3)C1)C2
  5%, -25, 6%, 4%, -1.3%, -7, 0.2

Rows are unselected. Share with any hit: about 5.1%.
